High-throughput results as filed in PubChem.
GIV-Gai inh: GIV-Galpha-i interaction inhibition; percent of control (FP), % (no concentration beside the values); P08753; Galpha-i3/FITC-GIV peptide fluorescence polarization, 90 min; active compounds read low; scaled: aluminum fluoride 0%, vehicle 100%; actives 0.42% (n = 210,000);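 active means replicate mean at 85% of control or lower, very high polarization wells dropped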;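 further: wells of about 15 µL received 100 nL stock; the first replicate is given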
Target sequence (P08753 whole entry, looked up): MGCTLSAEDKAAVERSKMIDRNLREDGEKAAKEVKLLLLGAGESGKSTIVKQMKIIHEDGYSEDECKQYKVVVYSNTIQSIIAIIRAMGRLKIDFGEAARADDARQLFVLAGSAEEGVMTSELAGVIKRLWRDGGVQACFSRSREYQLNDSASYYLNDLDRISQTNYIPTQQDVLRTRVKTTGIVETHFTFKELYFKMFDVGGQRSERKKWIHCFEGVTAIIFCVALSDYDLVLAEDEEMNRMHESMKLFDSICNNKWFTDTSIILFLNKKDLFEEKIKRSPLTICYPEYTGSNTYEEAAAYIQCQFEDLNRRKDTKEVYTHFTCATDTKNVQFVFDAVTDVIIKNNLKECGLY
Sa growth 42C: S. aureus growth inhibition; S. aureus RN4220 growth, OD600, 20 h, 42 °C; active compounds read low; relative growth, % (no concentration beside the values); actives 0.53% (n = 170,000); AID 720641;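 active means growth at 42 °C up to 50% and 20 or more points under that at 30 °C, or under 10% at both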;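 further: 300 nL library stock went into each well; scaled to the means of positive and negative controls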
HCMV UL50-53 inh: inhibitors of HCMV UL50-UL53 nuclear egress complex interaction | AID 1918969 | inhibition, % (concentration not given with the values) | HTRF UL50-UL53 interaction, normalized percent inhibition | actives 0.15% (n = 190,000);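 active means both replicates at 50% or more, plus weaker picks with an unusually low signal ratio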;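 further: stock transfer was 100 nL into about 20 µL; 0% = negative control wells and 100% = wells with untagged competitor protein; inactives centre near -12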
Sa growth 42C second temp: also measured in Sa growth 42C; calls as there; relative growth, %; measured here: growth at 30 °C;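 optical density after 20 h as mean of two plates; 100% = untreated growth and lower means inhibition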
Numbers without * were called inactive; · = not tested or not shown; & = joins results of further samples.

molecule	GIV-Gai inh	Sa growth 42C	Sa growth 42C second temp	HCMV UL50-53 inh
COc1ccc(-n2cnnc2SCCC#N)cc1	·	102	97	-38
Nn1c(Cc2ccccc2F)nnc1SCC(=O)c1ccc[nH]1	·	114	102	-9
O=C1CCCc2cc(S(=O)(=O)N3CCCC3C(=O)NC3CCCCC3)ccc2N1 (stereo unspecified)	114	·	·	-24
Cc1ccccc1Nc1nc(N)nc(CSc2ccc(S(=O)(=O)N(C)C)cn2)n1	·	79	95	-22
Cc1cc(C)c(NC(=O)Cn2c(=O)n(CCC(C)C)c(=O)c3cccnc32)c(C)c1	101	105	97	-3
CCc1nnc(NC(=O)CSc2nccn2Cc2ccc(C)cc2)s1	96	87	93	·
CCOC(=O)c1ccc(NS(=O)(=O)c2cc(-c3cc(C)no3)ccc2C)cc1	100	99	106	6
S=c1sc2c(N3CCN(C/C=C/c4ccccc4)CC3)ncnc2n1-c1ccccc1	·	91	78	-9

molecule	GIV-Gai inh	Sa growth 42C	Sa growth 42C second temp	HCMV UL50-53 inh
CCOC(=O)CCC(=O)O[C@H]1[C@H](O[C@@H]2[C@@H](C)[C@H](O[C@H]3C[C@@](C)(OC)[C@@H](O)[C@H](C)O3)[C@@H](C)C(=O)O[C@H](CC)[C@@](C)(O)[C@H](O)[C@@H](C)C(=O)[C@H](C)C[C@@]2(C)O)O[C@H](C)C[C@@H]1N(C)C	·	-0.8*	-0.6*	-14
CCSc1nnc2c(n1)OC(c1ccc([N+](=O)[O-])o1)Nc1ccccc1-2 (stereo unspecified)	102	·	·	-38
O=C(OCc1ccco1)c1cccnc1Cl	·	102	76	-20
CC(NC(=O)c1ccc2c(c1)sc1nc(-c3ccc(F)cc3)cn12)C12CC3CC(CC(C3)C1)C2 (stereo unspecified)	103	119	96	·
Cc1cc(C(N)=O)c(C)n1CCCn1ccnc1	·	107	99	-8
COC(=O)CC1Oc2ccccc2N(Cc2ccc(C)cc2)C1=O (stereo unspecified)	105	106	92	·
CCCCCOc1ccc(C2c3c(oc4ccccc4c3=O)C(=O)N2c2nc(C)c(C)s2)cc1OCC (stereo unspecified)	106	99	88	7
COc1ccc(/C=C2/C(=O)NC(=O)N(c3cccc(Br)c3)C2=O)cc1OC	111	·	·	-16

molecule	GIV-Gai inh	Sa growth 42C	Sa growth 42C second temp	HCMV UL50-53 inh
CN1C(c2ccccc2)=CC(c2ccccc2)n2ncnc21 (stereo unspecified)	·	117	90	-6
Cc1cccc(/C=N/NC(=O)c2ccccn2)c1O	110	79	76	-55
Cc1cc2nc(CSc3nnc(NC(=O)Nc4ccc(F)c(Cl)c4)s3)cc(=O)n2o1	110	·	·	-28
CC1CCCN(c2nc3nonc3nc2N2CCCC(C)C2)C1 (stereo unspecified)	106	·	·	-18
OCCNc1ncnc2onc(-c3ccc(F)cc3)c12	100	·	·	0
CC(C)OC(=O)c1ccc2[nH]c3c(c2c1)CCCC3	108	34*	60*	·
CC(C)CCn1c(CNC(=O)c2ccccc2)nc2ccccc21	101	96	86	·
CCCCn1c(CCCNC(=O)C(C)C)nc2ccccc21	100	84	80	·

molecule	GIV-Gai inh	Sa growth 42C	Sa growth 42C second temp	HCMV UL50-53 inh
COc1cc(N2C(=O)c3ccccc3C2=O)nc(OC)n1	103	94	87	·
CCOC(=O)/C=C1\SC(=O)CN1CC(=O)Nc1ccccc1	·	98	90	-17
COc1cc(C(=O)Nc2ccc3oc(-c4cccc(Br)c4)nc3c2)cc(OC)c1OC	104	·	·	-24
O=C(COC(=O)Cn1[nH]c(=O)c2ccccc2c1=O)Nc1ncc(Cl)cc1Cl	·	96	92	0
Cc1ccc(S(C)(=O)=NC(=O)CSc2ccc(Cl)cc2)cc1 (stereo unspecified)	96	80	82	-4
FC(F)(F)c1ccnc(NCCNC(=S)NCc2ccco2)n1	106	88	85	-13
CCn1c(=O)c2c(C(=O)NC3CC3)cc(=O)n(CC)c2n(C)c1=O	105	·	·	-21
CCOc1cccc(-c2nc(C(N)=O)c3[nH]c(=O)n(CC4CCCO4)c3n2)c1O (stereo unspecified)	102	·	·	-31

molecule	GIV-Gai inh	Sa growth 42C	Sa growth 42C second temp	HCMV UL50-53 inh
CCn1c(SCC(=O)Nc2ccccc2C(=O)OC)nc2ccsc2c1=O	104	100	89	·
CCN(CC)S(=O)(=O)c1cccc(C(=O)O)c1	102	125	82	·
COc1ccc(-c2nc3cc(N=Cc4ccccc4O)ccc3o2)cc1	101	114	81	-13
O=C(NC1CC1)C1=CCN(S(=O)(=O)c2ccc(Br)cc2)CC1	98	81	85	-21
O=c1c(Br)c(NCc2ccco2)cnn1-c1ccccc1	·	82	90	-33
CS(=O)(=O)c1ccc([C@@H](O)[C@@H](COC(=O)CN)NC(=O)C(Cl)Cl)cc1	103	52	48	-5
COCC(C)n1c(C)ccc1C (stereo unspecified)	·	146	82	-30
Cc1ccc(Sc2ncnc3sccc23)cc1	99	112	106	-14

molecule	GIV-Gai inh	Sa growth 42C	Sa growth 42C second temp	HCMV UL50-53 inh
CC1Oc2ccccc2OC1C(=O)N1CCOCC1 (stereo unspecified)	·	90	89	-8
O=C(O)c1sccc1S(=O)(=O)Nc1ccccc1N1CCOCC1	106	104	86	-36
O=C(CCCCCN1C(=O)c2ccccc2C1=O)Nc1nccs1	96	93	104	4
COc1ccc(OCc2nnc(N)s2)cc1	·	104	94	2
CSC1=NCCN1C(=O)c1cc2ccccc2o1	104	82	88	-70
Cc1cc(C)c(Cn2c(=O)n(Cc3ccccc3)c(=O)c3c(C)c(C)sc32)c(C)c1	104	102	93	-11
CC(C)c1ccc(C2C3=C(CCCC3=O)NC3=C2C(=O)c2ccccc23)cc1 (stereo unspecified)	101	112	63	·
COc1ccc(CCNC(=O)CC(c2ccccc2)c2cc(Br)ccc2O)cc1OC (stereo unspecified)	99	106	67	·

Profiles, quoted from the list:
Record of `O=C(COC(=O)Cn1[nH]c(=O)c2ccccc2c1=O)Nc1ncc(Cl)cc1Cl` : GIV-Gai inh: ·; Sa growth 42C: 96; Sa growth 42C second temp: 92; HCMV UL50-53 inh: 0
Record of `CC(NC(=O)c1ccc2c(c1)sc1nc(-c3ccc(F)cc3)cn12)C12CC3CC(CC(C3)C1)C2` (stereo unspecified) : GIV-Gai inh: 103; Sa growth 42C: 119; Sa growth 42C second temp: 96; HCMV UL50-53 inh: ·
Record of `COc1ccc(OCc2nnc(N)s2)cc1` : GIV-Gai inh: ·; Sa growth 42C: 104; Sa growth 42C second temp: 94; HCMV UL50-53 inh: 2

(next part)
molecule	GIV-Gai inh	Sa growth 42C	Sa growth 42C second temp	HCMV UL50-53 inh
Cc1cc(C)cc(-n2nnc(C(=O)OCc3ccccc3)c2C)c1	100	·	·	-9
O=C(Cn1nc(Cc2cccnc2)c2ccccc2c1=O)NCC1COc2ccccc2O1 (stereo unspecified)	104	108	80	6
COc1cc(Cl)c(NC(=O)c2cc3ccccn3n2)c(OC)c1	105	102	93	·
Cc1ccc(CSCc2ccc(C(=O)NC3CC3)o2)cc1	105	90	77	4
COc1cccc(Nc2nc(Cl)nc(Nc3cccc(OC)c3)n2)c1	101	·	·	0
COc1ccc(-c2nc3cc(NC(=O)COc4ccc(C)c(C)c4)ccc3o2)cc1	100	93	86	-23
NC(=O)COC(=O)Cc1ccc(Cl)cc1	·	88	90	-21
CCOC(=O)C1CCc2sc(N)c(C#N)c21 (stereo unspecified)	98	94	83	-5

molecule	GIV-Gai inh	Sa growth 42C	Sa growth 42C second temp	HCMV UL50-53 inh
Cc1csc2nc(COc3ccc(NC(=O)C(C)C)cc3)cc(=O)n12	99	101	85	-34
CCC(=O)OCc1cnc(C)c2oc(=O)c(-c3nc(-c4ccc5c(c4)OCO5)no3)cc12	103	·	·	-26
CN(C)S(=O)(=O)c1ccc2c(c1)c(=O)c(C(=O)N1CCN(c3cccc(Cl)c3)CC1)cn2C	105	113	83	-12
CC(NC(=O)C1CCN(S(=O)(=O)Cc2ccccc2)CC1)c1ccccc1 (stereo unspecified)	101	99	91	-16
O=C(CSc1oc(-c2ccc(F)cc2)nc1S(=O)(=O)c1ccccc1)c1ccc(Cl)cc1	107	96	91	-1
CCOC(=O)C1=C(C)N=c2s/c(=C\c3cc(OC)ccc3OC)c(=O)n2C1c1ccc(N(C)C)cc1 (stereo unspecified)	104	·	·	-31
CC1(C)CC(=NOC(=O)c2ccccc2)CC(C)(C)N1	105	85	84	-22
CCOc1ccc2oc(C(=O)Nc3ccc(S(C)(=O)=O)cc3)c(C)c2c1	·	99	100	-8

molecule	GIV-Gai inh	Sa growth 42C	Sa growth 42C second temp	HCMV UL50-53 inh
CCOC(=O)c1c(NC(=O)c2ccc(OC)cc2)sc(C(=O)Nc2cccc(Cl)c2C)c1C	99	·	·	-3
CC(=O)N1CCC2(CC1)OC(=O)C(C)=C2C(=O)NCCCN1CCN(C2CCCCC2)CC1	100	·	·	-12
Cc1cccc(/C=N/N(C)C)c1	·	76	88	-19
C=CCSc1nc(O)cc(=O)n1C	100	113	77	-4
Cc1ccc2c(c1)N(CC(=O)N1CCCC1)C(=O)C(C)O2 (stereo unspecified)	103	118	92	-14
CC(C)C(=O)N=c1sc2cccc(F)c2n1C	110	96	26	0
CCCC(CCC)C(=O)NC1CCN(Cc2ccccc2)CC1	·	97	92	-12
CN1/C(=C\C=N\NC(=O)Cc2cn3ccsc3n2)C(C)(C)c2ccccc21	·	72	65	-34

Order of results – GIV-Gai inh | Sa growth 42C | Sa growth 42C second temp | HCMV UL50-53 inh
O=S1(=O)c2ccccc2N(Cc2ccccc2F)c2ccccc21
 : 99 | 94 | 94 | ·
O=C(O)CSCC(=O)N1CCOCC1
 : 105 | 97 | 83 | -6
CCN(CC)c1ccc(C(=O)OCC(=O)Nc2ncccn2)cc1
 : · | 89 | 90 | -3
O=c1oc2c(c(O)c1Cc1ccccc1)c(=O)[nH]c1ccccc12
 : 104 | 91 | 92 | -1
CCN1CC(C)C(O)(c2ccccc2)CC1C (stereo unspecified)
 : · | 98 | 90 | -6
COc1cccc(CS(=O)(=O)c2ccc3c(c2)S(=O)(=O)N=CN3)c1
 : 106 | · | · | -7
Cc1ccc(-n2c(-c3ccco3)nc3nc4ccccc4nc32)cc1
 : · | 80 | 90 | -20
CC(O)CNc1c[nH]c(=O)[nH]c1=O (stereo unspecified)
 : 100 | 90 | 85 | -21
COc1ccc(CNC(=O)c2cc3cc(S(=O)(=O)N4CCCCC4)ccc3n2C)c(OC)c1
 : 98 | 92 | 92 | ·
CCn1c(SCC(=O)c2ccccc2)nc2ccccc2c1=O
 : 101 | 87 | 79 | -9
CCCC(=O)Nc1cc(Cl)ccc1OC
 : 97 | 102 | 89 | -6
Cc1onc(-c2ccccc2)c1C(=O)NCc1ccccc1
 : · | 108 | 89 | -21
OCc1ccccc1Sc1ccccc1CO
 : 97 | 94 | 87 | -11
CCOCCCNCc1ccc(-c2ccc(Cl)cc2Cl)o1
 : 106 | · | · | -26
CCC(C(=O)Nc1ccccn1)N1CCN(Cc2ccc(F)cc2)C(=O)C1=O (stereo unspecified)
 : 103 | · | · | -15
O=C(c1ccc2c(c1)N(Cc1ccccc1F)C(=O)c1ccccc1S2=O)N1CCOCC1 (stereo unspecified)
 : 101 | 95 | 91 | -13
Cc1ccc(C(=O)N2CCc3cc(CNC(=O)CCc4ccccc4)ccc32)cc1
 : 107 | 82 | 91 | ·
O=C(Cn1ncc2c3ccccc3n(Cc3ccccc3)c2c1=O)NCCCN1CCCCC1
 : 107 | 102 | 83 | -16
CCn1cc(C(=O)O)c(=O)c2cc3c(cc21)OCO3
 : 102 | 98 | 77 | -8&-15&-9
CCOc1ccc(N2C(=O)NC(=O)/C(=C/c3cc(Br)ccc3OC)C2=O)cc1
 : 108 | · | · | -9
COc1ccc2c(c1)c(=O)oc1c(CN(C)C)c(O)ccc12
 : 109 | 120 | 94 | -22
COc1ccc(Nc2cc(C(=O)NCCN3CCCC3)c3ccccc3n2)c(OC)c1
 : 112 | 97 | 88 | -2
O=C(NCc1cccc(Cl)c1)c1cc2c(s1)-c1ccccc1OC2
 : 106 | 113 | 58 | -1
CCn1c(=O)c2sccc2n2c(CCCC(=O)Nc3ccc(C)cc3)nnc12
 : 105 | 97 | 85 | ·
COc1ccc(C(=O)Nc2c(C)nc(Nc3ccccc3)nc2Nc2ccccc2)cc1
 : 98 | · | · | -3
Cc1cc(=O)n2[nH]c(C(=O)N3CCCC3)nc2n1
 : 101 | 90 | 83 | ·
S=c1nc(-c2csc3c2CCCC3)[nH][nH]1
 : 105 | 55 | 16 | -2
COCCCNC(=O)C1CCN(C(=O)c2cnn(-c3ccccc3)c2-n2cccc2)CC1
 : 101 | 98 | 88 | -18
COc1ccc(-c2cn(-c3ccc(Br)cc3)c(=O)[nH]2)cc1
 : 121 | 82 | 62 | ·
CCOC(=O)c1c(CN(CC)CC)n(C)c2c1cc(OC(C)=O)c1c2c(-c2ccccc2)nn1-c1ccccc1
 : 100 | · | · | -16

Order of results – GIV-Gai inh | Sa growth 42C | Sa growth 42C second temp | HCMV UL50-53 inh
COc1ccc(C#N)cc1Br
 : 102 | 95 | 93 | -38
Cc1sc2ncnc(N3CCC(C(=O)NC4(C)CCS(=O)(=O)C4)CC3)c2c1C (stereo unspecified)
 : · | 95 | 92 | -20
CCOc1ccc(C(=O)c2cn(CC(=O)Nc3ccc(Cl)cc3)c3cc4c(cc3c2=O)OCO4)cc1
 : 109 | 100 | 74 | 21
c1ccc(-c2nc(C34CC5CC(CC(C5)C3)C4)co2)cc1
 : 96 | 114 | 89 | ·
COc1ccc(N2CCN(C(=O)C3CCN(S(=O)(=O)c4cn(C)c(C)n4)CC3)CC2)cc1
 : 107 | · | · | -1
